rRNA inh HTS – inhibitors of bacterial rRNA selective over humanized ribosomes. E. coli WT GFP vs humanized-ribosome RFP mutants, fluorescence, 24 h; stronger effect = lower value; DMSO median 0, no signal -100. GFP signal change (wild-type ribosome), % (concentration not given with the values). 1.6% of 350,000 active. AID 720706;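 active = significant combined selectivity score with lowered wild-type GFP, culture density cut under 30%, mutant RFP and density less affected; inactive = any of these conditions unmet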; note: one replicate is shown; some compounds called inactive have numbers as strong as hits
rRNA inh HTS OD600 – further read-out of rRNA inh HTS, marked with its call; OD600 change, %; measured here: OD600 growth;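 optical density of the mix in the first replicate; 0 = DMSO median and -100 = no signal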
rRNA inh HTS RFP – recorded beside rRNA inh HTS, whose call it bears; RFP signal change, %; measured here: RFP humanized mutant strains;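 first replicate; 0 = DMSO median and -100 = no signal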
Starred values were filed as active, the others as inactive. Only part of the results is shown, so the mix of outcomes need not match the whole.

The first 8 records, ahead of the listing:
How did C[C@@H]1CCCCO[C@H](CN(C)C(=O)Nc2ccccc2)[C@@H](C)CN([C@H](C)CO)C(=O)c2cc(NS(C)(=O)=O)ccc2O1 do in these assays?
rRNA inh HTS: 3; rRNA inh HTS OD600: 2; rRNA inh HTS RFP: -1.9

What do the screens show for `CCC(=O)Nc1ccc2c(c1)OC[C@@H](C)N(C(=O)c1cnccn1)C[C@@H](C)[C@H](OC)CN(C)C2=O`?
rRNA inh HTS: 2; rRNA inh HTS OD600: 1; rRNA inh HTS RFP: -2.5

What do the screens show for `CCN1[C@@H]2c3ccc(-c4ccccc4F)c(=O)n3C[C@H]1[C@H](CO)[C@H]2C(=O)N1CCCCC1`?
rRNA inh HTS: 0; rRNA inh HTS OD600: 1; rRNA inh HTS RFP: -2.3

How did C[C@H](O)C#Cc1ccc([C@@H]2[C@H]3CN(C(=O)c4ccc(F)cc4)CCCCN3[C@H]2CO)cc1 do in these assays?
rRNA inh HTS: 0; rRNA inh HTS OD600: -2; rRNA inh HTS RFP: -2.1

Results for CC(C)NC(=O)Nc1ccc2c(c1)C(=O)N([C@@H](C)CO)C[C@@H](C)[C@@H](CN(C)S(=O)(=O)c1cccs1)O2 ?
rRNA inh HTS: 2; rRNA inh HTS OD600: -4; rRNA inh HTS RFP: 2.5

Results for COc1cccc(NC(=O)N(C)C[C@H]2Oc3ncc(C#Cc4ccccc4)cc3C(=O)N([C@@H](C)CO)C[C@@H]2C)c1 ?
rRNA inh HTS: -2; rRNA inh HTS OD600: -1; rRNA inh HTS RFP: 0.8

What do the screens show for `CC(C)(C)[S@@](=O)N1Cc2cc(C(=O)N[C@H]3CCN(Cc4ccccc4)C3)nc(-c3cccc(-c4ccncc4)c3)c2[C@H]1CCO`?
rRNA inh HTS: -4; rRNA inh HTS OD600: 6; rRNA inh HTS RFP: 1.1

How did CO[C@@H]1CN(C)C(=O)c2ccc(NC(=O)NC3CCCCC3)cc2OC[C@@H](C)N(C(=O)NC2CCCCC2)C[C@H]1C do in these assays?
rRNA inh HTS: -3; rRNA inh HTS OD600: -3; rRNA inh HTS RFP: 0.8

This part in full, previewed entries included:
How did C[C@@H]1CCCCO[C@H](CN(C)C(=O)Nc2ccccc2)[C@@H](C)CN([C@H](C)CO)C(=O)c2cc(NS(C)(=O)=O)ccc2O1 do in these assays?
rRNA inh HTS: 3; rRNA inh HTS OD600: 2; rRNA inh HTS RFP: -1.9

What do the screens show for `CCC(=O)Nc1ccc2c(c1)OC[C@@H](C)N(C(=O)c1cnccn1)C[C@@H](C)[C@H](OC)CN(C)C2=O`?
rRNA inh HTS: 2; rRNA inh HTS OD600: 1; rRNA inh HTS RFP: -2.5

What do the screens show for `CCN1[C@@H]2c3ccc(-c4ccccc4F)c(=O)n3C[C@H]1[C@H](CO)[C@H]2C(=O)N1CCCCC1`?
rRNA inh HTS: 0; rRNA inh HTS OD600: 1; rRNA inh HTS RFP: -2.3

How did C[C@H](O)C#Cc1ccc([C@@H]2[C@H]3CN(C(=O)c4ccc(F)cc4)CCCCN3[C@H]2CO)cc1 do in these assays?
rRNA inh HTS: 0; rRNA inh HTS OD600: -2; rRNA inh HTS RFP: -2.1

Results for CC(C)NC(=O)Nc1ccc2c(c1)C(=O)N([C@@H](C)CO)C[C@@H](C)[C@@H](CN(C)S(=O)(=O)c1cccs1)O2 ?
rRNA inh HTS: 2; rRNA inh HTS OD600: -4; rRNA inh HTS RFP: 2.5

Results for COc1cccc(NC(=O)N(C)C[C@H]2Oc3ncc(C#Cc4ccccc4)cc3C(=O)N([C@@H](C)CO)C[C@@H]2C)c1 ?
rRNA inh HTS: -2; rRNA inh HTS OD600: -1; rRNA inh HTS RFP: 0.8

What do the screens show for `CC(C)(C)[S@@](=O)N1Cc2cc(C(=O)N[C@H]3CCN(Cc4ccccc4)C3)nc(-c3cccc(-c4ccncc4)c3)c2[C@H]1CCO`?
rRNA inh HTS: -4; rRNA inh HTS OD600: 6; rRNA inh HTS RFP: 1.1

How did CO[C@@H]1CN(C)C(=O)c2ccc(NC(=O)NC3CCCCC3)cc2OC[C@@H](C)N(C(=O)NC2CCCCC2)C[C@H]1C do in these assays?
rRNA inh HTS: -3; rRNA inh HTS OD600: -3; rRNA inh HTS RFP: 0.8

How did C[C@H](CO)N1C[C@H](C)[C@@H](CN(C)C(=O)CC2CC2)Oc2ncc(C#CCC3CCCC3)cc2C1=O do in these assays?
rRNA inh HTS: -8; rRNA inh HTS OD600: -48; rRNA inh HTS RFP: 25

What do the screens show for `N#C[C@H]1[C@@H](c2ccccc2C2=CCCC2)[C@H](CO)N1C(=O)c1ccccn1`?
rRNA inh HTS: -10; rRNA inh HTS OD600: -4; rRNA inh HTS RFP: 5.8

How did CC(=O)N(C)C[C@H]1Oc2ncc(C#Cc3ccccc3F)cc2C(=O)N([C@H](C)CO)C[C@H]1C do in these assays?
rRNA inh HTS: 0; rRNA inh HTS OD600: -5; rRNA inh HTS RFP: -0.2

How did CO[C@@H]1CN(C)C(=O)c2cc(NC(=O)C3CCCCC3)ccc2OC[C@@H](C)N(Cc2nccs2)C[C@@H]1C do in these assays?
rRNA inh HTS: -7; rRNA inh HTS OD600: -6; rRNA inh HTS RFP: 2.2

Results for Cc1ccc(-c2ccc([C@@H]3[C@@H](CO)N4CCCCN(S(=O)(=O)c5ccccc5C)C[C@@H]34)cc2)cc1 ?
rRNA inh HTS: -1; rRNA inh HTS OD600: -3; rRNA inh HTS RFP: 0.1

How did C[C@H](O)[C@@H]1C(=O)N2CCc3c([nH]c4ccccc34)[C@@H]2C[C@@H]1N(C)C(=O)c1cc(Cl)cc(Cl)c1 do in these assays?
rRNA inh HTS: -2; rRNA inh HTS OD600: -9; rRNA inh HTS RFP: 1.5

Results for CS(=O)(=O)N1[C@@H]2c3ccc(-c4cccc(F)c4)c(=O)n3C[C@@H]2[C@@H](CO)[C@@H]1C(=O)NC1CCC1 ?
rRNA inh HTS: 1; rRNA inh HTS OD600: 0; rRNA inh HTS RFP: -2.8

How did CC(=O)NC[C@@H]1[C@H](c2ccc(-c3ccccc3F)cc2)[C@@H](CO)N1C(=O)C1CC1 do in these assays?
rRNA inh HTS: -1; rRNA inh HTS OD600: -5; rRNA inh HTS RFP: -2.3

How did C[C@H]1CN([C@@H](C)CO)C(=O)c2cc(NC(=O)CCCCCC(=O)Nc3ccccc3N)ccc2O[C@@H]1CN(C)C(=O)NC1CCCCC1 do in these assays?
rRNA inh HTS: 0; rRNA inh HTS OD600: 10; rRNA inh HTS RFP: -2.1

What do the screens show for `COCC(=O)N1CC2(CCN(C(=O)CN3CCOCC3)CC2)c2c([nH]c3cc(OC)ccc23)[C@H]1CO`?
rRNA inh HTS: 3; rRNA inh HTS OD600: 8; rRNA inh HTS RFP: -1.7

How did CC(C)CC#Cc1cnc2c(c1)C(=O)N([C@@H](C)CO)C[C@@H](C)[C@@H](CN(C)S(=O)(=O)c1cn(C)cn1)O2 do in these assays?
rRNA inh HTS: 5; rRNA inh HTS OD600: 8; rRNA inh HTS RFP: -1.3

How did CC[C@H]1C/C=C\C[C@H](c2ccc(OC)cc2OC)NC(=O)[C@H](C)CC(=O)N1 do in these assays?
rRNA inh HTS: 1; rRNA inh HTS OD600: 3; rRNA inh HTS RFP: 3.7

How did Cc1cn([C@H]2C[C@H](O)[C@@H](CNCc3ccccc3OCCCN3CCOCC3)O2)c(=O)[nH]c1=O do in these assays?
rRNA inh HTS: 14; rRNA inh HTS OD600: 6; rRNA inh HTS RFP: 0.8

How did COCC#Cc1ccc([C@H]2[C@H](CO)N3C(=O)CN(C(=O)c4ccncc4)C[C@@H]23)cc1 do in these assays?
rRNA inh HTS: 6; rRNA inh HTS OD600: 11; rRNA inh HTS RFP: -1.1

What do the screens show for `O=C(Cc1ccccc1)N[C@@H]1C=C[C@@H](CC(=O)N2CCCCC2)O[C@@H]1CO`?
rRNA inh HTS: -3; rRNA inh HTS OD600: 0; rRNA inh HTS RFP: 0.0

What do the screens show for `O=C(N[C@H]1CC[C@@H](CCn2cc(C3(O)CCCC3)nn2)O[C@H]1CO)C1CCCC1`?
rRNA inh HTS: 3; rRNA inh HTS OD600: 8; rRNA inh HTS RFP: 0.1

What do the screens show for `CO[C@H]1CN(C)C(=O)c2cc(NC(=O)C3CCC3)ccc2OC[C@@H](C)NC[C@H]1C`?
rRNA inh HTS: 2; rRNA inh HTS OD600: 9; rRNA inh HTS RFP: -1.7

What do the screens show for `CCC(=O)N(C)C[C@@H]1Oc2cc(/C=C/c3ccccc3)ccc2S(=O)(=O)N([C@@H](C)CO)C[C@@H]1C`?
rRNA inh HTS: -19; rRNA inh HTS OD600: -33; rRNA inh HTS RFP: 15

Results for C[C@H]1CN([C@@H](C)CO)C(=O)c2cccc(NS(=O)(=O)c3cn(C)cn3)c2O[C@@H]1CN(C)S(=O)(=O)c1ccc(Cl)cc1 ?
rRNA inh HTS: 2; rRNA inh HTS OD600: 6; rRNA inh HTS RFP: 0.7

What do the screens show for `C/C=C/c1ccc2c(c1)O[C@@H](CN(C)Cc1cccnc1)[C@H](C)CN([C@@H](C)CO)S2(=O)=O`?
rRNA inh HTS: -9; rRNA inh HTS OD600: -27; rRNA inh HTS RFP: -2.9

What do the screens show for `CC=Cc1ccc2n(c1=O)C[C@H]1[C@H](CO)[C@@H](C(=O)N3CCC(Cc4ccccc4)CC3)N(CC)[C@@H]21` (mixture of isomers)?
rRNA inh HTS: -5; rRNA inh HTS OD600: -25; rRNA inh HTS RFP: 8.0

How did Cc1ccc(S(=O)(=O)Nc2ccc3c(c2)C(=O)N([C@@H](C)CO)C[C@@H](C)[C@H](CN(C)Cc2ccc(C(=O)O)cc2)O3)cc1 do in these assays?
rRNA inh HTS: 3; rRNA inh HTS OD600: 9; rRNA inh HTS RFP: -2.7

What do the screens show for `C/C=C/c1ccc([C@@H]2[C@H](CO)N3CCCCN(C(=O)Nc4ccccc4F)C[C@@H]23)cc1`?
rRNA inh HTS: 2; rRNA inh HTS OD600: 4; rRNA inh HTS RFP: 1.3

What do the screens show for `CO[C@@H]1CN(C)C(=O)c2cc(NC(=O)Nc3cccc(F)c3)ccc2OC[C@H](C)N(C(C)=O)C[C@@H]1C`?
rRNA inh HTS: -6; rRNA inh HTS OD600: -6; rRNA inh HTS RFP: 2.4

How did COc1ccccc1CN1CC[C@@H]2[C@H]1c1cc(C#Cc3ccccc3)ccc1N[C@@H]2CO do in these assays?
rRNA inh HTS: -60; rRNA inh HTS OD600: -72; rRNA inh HTS RFP: -15

What do the screens show for `C[C@@H]1CN([C@@H](C)CO)C(=O)CCCn2nncc2CO[C@@H]1CN(C)C(=O)Nc1ccc(F)cc1`?
rRNA inh HTS: 0; rRNA inh HTS OD600: 3; rRNA inh HTS RFP: -1.6

Results for COc1ccc(C#Cc2cnc3c(c2)C(=O)N([C@@H](C)CO)C[C@H](C)[C@@H](CN(C)C(=O)c2ccccc2F)O3)cc1 ?
rRNA inh HTS: -1; rRNA inh HTS OD600: -15; rRNA inh HTS RFP: 11

What do the screens show for `COc1ccc(NC(=O)C[C@H]2C(=O)N(Cc3ccccc3)C[C@@H]2c2ccc(OC)cc2)cc1`?
rRNA inh HTS: 5; rRNA inh HTS OD600: 3; rRNA inh HTS RFP: 0.0

What do the screens show for `CN(C)C(=O)c1cccc(-c2ccc([C@H]3[C@H](CO)N4C(=O)CN(C(=O)C5CCCC5)C[C@@H]34)cc2)c1`?
rRNA inh HTS: 7; rRNA inh HTS OD600: 11; rRNA inh HTS RFP: 0.9

What do the screens show for `COc1ccc(NC(=O)N2C[C@@H](O)COC[C@@H]3O[C@@H](CC(=O)N4CCOCC4)CC[C@H]32)cc1`?
rRNA inh HTS: 3; rRNA inh HTS OD600: 7; rRNA inh HTS RFP: 4.4

How did COc1ccc2c3c([nH]c2c1)[C@@H](CO)N(C(=O)c1ccncc1)CC31CN(Cc2cccnc2)C1 do in these assays?
rRNA inh HTS: 3; rRNA inh HTS OD600: 6; rRNA inh HTS RFP: 2.0

What do the screens show for `C[C@@H]1CN([C@H](C)CO)C(=O)Cc2cc(NS(=O)(=O)c3cn(C)cn3)ccc2O[C@@H]1CN(C)S(=O)(=O)c1ccc(F)cc1`?
rRNA inh HTS: -2; rRNA inh HTS OD600: 1; rRNA inh HTS RFP: -0.6

Results for CCCNC(=O)N(C)C[C@@H]1Oc2cc(-c3ccc(C)cc3)ccc2S(=O)(=O)N([C@@H](C)CO)C[C@H]1C ?
rRNA inh HTS: 1; rRNA inh HTS OD600: -24; rRNA inh HTS RFP: -0.7

How did CC(NC(=O)CN1c2cccc3cccc(c23)S1(=O)=O)c1ccccc1 (stereo unspecified) do in these assays?
rRNA inh HTS: -37; rRNA inh HTS OD600: -34; rRNA inh HTS RFP: 1.3

What do the screens show for `C[C@@H]1CN([C@H](C)CO)S(=O)(=O)c2ccc(C#Cc3cccc(F)c3)cc2O[C@@H]1CN(C)C(=O)NC1CCCCC1`?
rRNA inh HTS: 0; rRNA inh HTS OD600: 6; rRNA inh HTS RFP: 1.5

How did Cc1ccc(C(O)c2ncc(-c3ccccc3)[nH]2)c(C)c1 (stereo unspecified) do in these assays?
rRNA inh HTS: -4; rRNA inh HTS OD600: -12; rRNA inh HTS RFP: -0.9

Results for CC1=C(C(=O)N(C(C)C)C(C)C)CC(CC(=O)NCCCCc2ccccc2)C(=O)N1Cc1ccc(F)cc1 (stereo unspecified) ?
rRNA inh HTS: 0; rRNA inh HTS OD600: 6; rRNA inh HTS RFP: -1.3

What do the screens show for `COc1ccc(S(=O)(=O)N(C)C[C@@H]2Oc3ccc(NS(=O)(=O)c4ccc(Cl)cc4)cc3CC(=O)N([C@@H](C)CO)C[C@H]2C)cc1`?
rRNA inh HTS: -5; rRNA inh HTS OD600: -8; rRNA inh HTS RFP: -1.5

How did O=C(C[C@@H]1C[C@@H]2c3cc(NC(=O)Nc4ccc(C(F)(F)F)cc4)ccc3O[C@@H]2[C@H](CO)O1)NCCc1ccccc1 do in these assays?
rRNA inh HTS: -3; rRNA inh HTS OD600: -1; rRNA inh HTS RFP: -0.5

Compound activity as filed in PubChem BioAssay.
